Bioassay records from PubChem.
AF4-AF9 inh: inhibitors of human MLL-AF4/AF9 interaction. 0.47% of 350,000 active. inhibition, % at 10 µM. AID 651704. AlphaScreen, biotin-AF4 peptide binding to FLAG-AF9. P42568;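 active = every replicate reaching a set inhibition limit, whatever the replicate mean, cut at about 25% in these data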;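 also: 0% = plate neutral control median and 100% = total signal loss; the record names both 10 and 1 µM as test concentration; the first replicate is given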
Target sequence (P42568 whole entry, looked up): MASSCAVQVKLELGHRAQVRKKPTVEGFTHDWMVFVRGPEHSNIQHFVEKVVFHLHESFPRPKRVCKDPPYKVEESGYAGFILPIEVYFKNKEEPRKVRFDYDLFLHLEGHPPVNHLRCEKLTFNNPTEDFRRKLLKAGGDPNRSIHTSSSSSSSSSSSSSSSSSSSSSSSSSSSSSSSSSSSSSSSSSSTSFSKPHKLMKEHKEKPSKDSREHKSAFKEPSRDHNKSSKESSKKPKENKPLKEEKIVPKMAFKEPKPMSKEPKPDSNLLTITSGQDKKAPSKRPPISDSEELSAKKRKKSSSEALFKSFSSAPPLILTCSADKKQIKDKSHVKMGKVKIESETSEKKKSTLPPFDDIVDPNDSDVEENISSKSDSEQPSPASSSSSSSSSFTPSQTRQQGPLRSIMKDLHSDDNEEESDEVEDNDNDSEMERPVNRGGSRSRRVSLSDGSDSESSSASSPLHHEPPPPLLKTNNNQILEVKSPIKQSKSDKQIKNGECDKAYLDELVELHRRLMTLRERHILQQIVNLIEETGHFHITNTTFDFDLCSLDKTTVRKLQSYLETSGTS
FGF22 binding: FGF22 (human) thermal shift binding; calls only at 9.99 µM; AID 651658; 1.5% of 340,000 active; recombinant FGF22 thermal shift, SYPRO orange fluorescence; percent of sucrose octasulfate shift, DMSO zero;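 active = melting point raised past a set limit in the mean and every replicate; three in four hits are not shown here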
Target sequence (Q9HCT0 whole entry, looked up): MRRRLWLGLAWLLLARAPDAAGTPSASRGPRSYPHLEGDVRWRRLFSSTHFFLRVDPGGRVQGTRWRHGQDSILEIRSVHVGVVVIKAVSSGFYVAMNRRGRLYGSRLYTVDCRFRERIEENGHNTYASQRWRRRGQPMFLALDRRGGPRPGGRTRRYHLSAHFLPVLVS
* = called active by the depositor; i = inactive; nt = not tested or not shown; & = joins results of further samples. The list is partial; the hit share may differ from the screen's.

The opening five entries as a preview:
no.	AF4-AF9 inh	FGF22 binding	smiles
1	-0.4	i	C[C@@H]1CCCCO[C@@H](CN(C)Cc2ccc(C(=O)Nc3ccccc3N)cc2)[C@@H](C)CN([C@H](C)CO)C(=O)c2cc(NC(=O)Nc3ccc(C(F)(F)F)cc3)ccc2O1
2	-1.6	i	C[C@H]1CN([C@@H](C)CO)C(=O)Cc2cc(NC(=O)Cc3cn(C)c4ccccc34)ccc2O[C@@H]1CN(C)Cc1ccc(C(=O)O)cc1
3	-3.6	i	COc1ccc(NC(=O)Nc2cccc3c2O[C@@H](CN(C)C(=O)Nc2ccccc2)[C@@H](C)CN([C@H](C)CO)C3=O)cc1
4	2.6	i	COc1ccc(CNC(=O)N(C)C[C@@H]2OCc3ccccc3-c3c(n(C)c4ccccc34)C(=O)N([C@@H](C)CO)C[C@@H]2C)cc1
5	1.4	i	COc1ccc(S(=O)(=O)N(C)C[C@@H]2Oc3ccc(NS(=O)(=O)c4ccccc4)cc3CC(=O)N([C@@H](C)CO)C[C@H]2C)cc1

The list itself, from the first entry:
no.	AF4-AF9 inh	FGF22 binding	smiles
1	-0.4	i	C[C@@H]1CCCCO[C@@H](CN(C)Cc2ccc(C(=O)Nc3ccccc3N)cc2)[C@@H](C)CN([C@H](C)CO)C(=O)c2cc(NC(=O)Nc3ccc(C(F)(F)F)cc3)ccc2O1
2	-1.6	i	C[C@H]1CN([C@@H](C)CO)C(=O)Cc2cc(NC(=O)Cc3cn(C)c4ccccc34)ccc2O[C@@H]1CN(C)Cc1ccc(C(=O)O)cc1
3	-3.6	i	COc1ccc(NC(=O)Nc2cccc3c2O[C@@H](CN(C)C(=O)Nc2ccccc2)[C@@H](C)CN([C@H](C)CO)C3=O)cc1
4	2.6	i	COc1ccc(CNC(=O)N(C)C[C@@H]2OCc3ccccc3-c3c(n(C)c4ccccc34)C(=O)N([C@@H](C)CO)C[C@@H]2C)cc1
5	1.4	i	COc1ccc(S(=O)(=O)N(C)C[C@@H]2Oc3ccc(NS(=O)(=O)c4ccccc4)cc3CC(=O)N([C@@H](C)CO)C[C@H]2C)cc1
6	-15.8	i	CC(C)C#Cc1cnc2c(c1)C(=O)N([C@H](C)CO)C[C@@H](C)[C@@H](CN(C)C(=O)c1cnccn1)O2
7	-1.8	i	O=C(C[C@@H]1CC[C@@H](NS(=O)(=O)c2ccccc2)[C@H](CO)O1)NCc1ccccc1F
8	-0.7	i	COCC(=O)N1[C@H](C#N)[C@H](c2ccccc2-c2ccccc2F)[C@H]1CO
9	-0.7	i	CN1C(=O)c2cc(NS(=O)(=O)c3ccc(F)cc3)ccc2OC[C@H]2O[C@@H](CC(=O)NCC(F)(F)F)CC[C@H]21
10	-2.2	i	COC(=O)[C@]12C[C@H](CC(=O)NCCCN3CCCC3=O)C(=O)N(CCC3=CCCCC3)C1=C[C@H](COCc1ccccc1)O[C@@H]2C
11	-0.8	i	COc1ccc(S(=O)(=O)N(C)C[C@@H]2OCCCC[C@@H](C)Oc3ccc(NC(=O)NC(C)C)cc3C(=O)N([C@@H](C)CO)C[C@H]2C)cc1
12	0.0	i	CCCNC(=O)N(C)C[C@@H]1Oc2cc(C#Cc3cccc(F)c3)ccc2S(=O)(=O)N([C@H](C)CO)C[C@H]1C
13	-2.9	i	CCCNC(=O)C[C@H]1C[C@H]2c3cc(NC(=O)C4CCOCC4)ccc3O[C@H]2[C@H](CO)O1
14	0.5	i	CO[C@H]1CN(C)C(=O)c2cc(NC(=O)C3CC3)ccc2OC[C@@H](C)N(C(C)=O)C[C@H]1C
15	-1.8	i	CC(C)NC(=O)Nc1ccc2c(c1)C(=O)N([C@H](C)CO)C[C@H](C)[C@H](CN(C)S(=O)(=O)c1cn(C)cn1)OCCCC[C@@H](C)O2
16	-12.4	i	CO[C@@H]1CN(C)C(=O)c2cc(NS(=O)(=O)c3ccccc3)ccc2OC[C@@H](C)N(C(=O)NC(C)C)C[C@@H]1C
17	-3.0	i	CC(C)NC(=O)N(C)C[C@@H]1Oc2ccc(NC(=O)Nc3ccccc3)cc2CC(=O)N([C@H](C)CO)C[C@@H]1C
18	-3.2	i	C[C@H](O)C#Cc1ccc2c(c1)O[C@@H](CN(C)Cc1ccccc1)[C@@H](C)CN([C@H](C)CO)S2(=O)=O
19	-2.2	i	COc1ccc(S(=O)(=O)N(C)C[C@H]2Oc3ccc(NS(C)(=O)=O)cc3C(=O)N([C@H](C)CO)C[C@@H]2C)cc1
20	-1.5	i	CC=Cc1ccc2n(c1=O)C[C@H]1[C@H](CO)[C@@H](C(=O)N[C@@H](C)c3ccccc3)[C@@H]2N1CC1CC1 (mixture of isomers)
21	2.1&-2.5	i	COCC#Cc1ccc2c(c1)O[C@H](CN(C)C(=O)c1ccccc1)[C@@H](C)CN([C@H](C)CO)S2(=O)=O
22	-2.5	i	C[C@H](CO)N1C[C@H](C)[C@@H](CN(C)Cc2ccc(C(=O)O)cc2)Oc2c(NC(=O)c3nc4ccccc4s3)cccc2C1=O
23	-3.7	i	C[C@H](CO)N1C[C@H](C)[C@@H](CN(C)C(=O)NC2CCCCC2)Oc2ccc(NC(=O)c3ccncc3)cc2CC1=O
24	6.2	i	COc1ccc2c3c(n(C)c2c1)[C@@H](CO)N(CC1CCCCC1)CC31CCN(C(=O)CN(C)C)CC1
25	-1.7	i	CO[C@@H]1CN(C)C(=O)c2cc(NC(C)=O)ccc2OC[C@H](C)N(Cc2cncnc2)C[C@@H]1C
26	-15.7	i	C[C@H]1CN([C@@H](C)CO)C(=O)c2cccc(NS(=O)(=O)c3ccccc3)c2O[C@H]1CN(C)S(=O)(=O)c1cn(C)cn1
27	-4.3	i	CCCNC(=O)N1C[C@@H](C)[C@H](OC)CN(C)C(=O)c2ccc(NS(C)(=O)=O)cc2OC[C@@H]1C
28	-0.3	i	CO[C@H]1CN(C)C(=O)c2ccc(NC(C)=O)cc2OC[C@@H](C)N(Cc2nccs2)C[C@H]1C
29	-0.7	i	C[C@H](CO)N1C[C@H](C)[C@@H](CN(C)S(=O)(=O)c2ccccc2)Oc2ncc(C#CC3(O)CCCC3)cc2C1=O
30	4.2	i	C[C@H]1CCCCO[C@@H](CN(C)C(=O)c2ccccc2)[C@@H](C)CN([C@@H](C)CO)C(=O)c2cc(NC(=O)NC3CCCCC3)ccc2O1

Screen by screen, as entered above:
Entries 12 to 19 in FGF22 binding: i, i, i, i, i, i, i, i
Entries 12 to 19 in AF4-AF9 inh: 0.0, -2.9, 0.5, -1.8, -12.4, -3.0, -3.2, -2.2

(list continues)
no.	AF4-AF9 inh	FGF22 binding	smiles
31	-1.2	i	COCCNC(=O)C[C@@H]1C[C@@H]2c3cc(NS(C)(=O)=O)ccc3O[C@@H]2[C@H](CO)O1
32	-4.4	i	CO[C@@H]1CC[C@H]2CCN(C)C(=O)[C@@H](C)[C@H](OC)CN(C)C(=O)c3cc(C#N)ccc3OC[C@@H]1O2
33	1.8	i	COc1ccc(S(=O)(=O)Nc2ccc3c(c2)C(=O)N([C@@H](C)CO)C[C@H](C)[C@@H](CN(C)S(=O)(=O)c2c(C)noc2C)OCCCC[C@@H](C)O3)cc1
34	-1.4	i	CC(C)NC(=O)N(C)C[C@@H]1Oc2ccc(N(C)C)cc2CC(=O)N([C@H](C)CO)C[C@@H]1C
35	-0.3	i	C/C=C/c1cnc2c(c1)C(=O)N([C@@H](C)CO)C[C@H](C)[C@@H](CN(C)Cc1ccc(F)cc1)O2
36	-2.7	i	C[C@H]1CN([C@@H](C)CO)C(=O)c2cccc(NS(C)(=O)=O)c2O[C@@H]1CN(C)C(=O)Nc1ccc(C(F)(F)F)cc1
37	-1.2	i	CCCCOCC1CN(CCCC)S(=O)(=O)c2c(Oc3ccc(F)cc3)cccc2O1 (stereo not given)
38	3.2	i	COc1ccccc1S(=O)(=O)N(C)C[C@H]1Oc2cc(/C=C/c3ccccc3)ccc2S(=O)(=O)N([C@@H](C)CO)C[C@H]1C
39	-1.3	i	N#C[C@@H]1[C@H](c2ccccc2C2=CCCC2)[C@@H](CO)N1C(=O)C1CCC1
40	-0.6	i	O=C(Nc1ccccc1)N1CCCCN2[C@H](CO)[C@H](c3ccc(-c4ccccc4F)cc3)[C@@H]2C1
41	-2.2	nt	CCc1cc2c(nc1CC)CCCN2S(=O)(=O)c1ccc(F)cc1
42	-1.2	i	CCC(=O)N(C)C[C@@H]1Oc2cc(C#CC3(O)CCCC3)ccc2S(=O)(=O)N([C@H](C)CO)C[C@H]1C
43	0.1	i	C[C@H]1CN([C@@H](C)CO)C(=O)Cc2cc(NC(=O)NC3CCCCC3)ccc2O[C@H]1CN(C)CC1CC1
44	6.4	i	CCC(=O)N(C)C[C@@H]1Oc2cc(C#CC3CCCCC3)ccc2S(=O)(=O)N([C@H](C)CO)C[C@H]1C
45	-0.5	i	C[C@@H]1CN([C@H](C)CO)C(=O)c2cc(NS(=O)(=O)c3ccccc3)ccc2O[C@@H]1CN(C)Cc1ccc(C(=O)Nc2ccccc2N)cc1
46	0.4	i	COc1ccc2c3c(n(C)c2c1)[C@@H](CO)N(C(=O)c1ccc(F)cc1)CC31CN(CC2CC2)C1
47	1.6	i	C[C@H](NC(=O)C[C@@H]1C[C@@H]2c3cc(NC(=O)Nc4ccc(C(F)(F)F)cc4)ccc3O[C@@H]2[C@@H](CO)O1)c1ccccc1
48	-10.4	i	C[C@H]1CN([C@@H](C)CO)C(=O)Cc2cc(NC(=O)CCN3CCOCC3)ccc2O[C@@H]1CN(C)S(=O)(=O)c1cccs1
49	7.2	i	C[C@@H]1CN([C@@H](C)CO)C(=O)c2cccc(NC(=O)Nc3ccc(C(F)(F)F)cc3)c2O[C@@H]1CN(C)Cc1ccc2c(c1)OCO2
50	-1.9	i	O=C(c1ccncc1)N1CC2(C1)[C@H](c1ccccc1)[C@@H](CO)N2CC1CCOCC1
51	2.8	i	CCCC#Cc1ccc2c(c1)O[C@H](CN(C)C(=O)c1cccnc1)[C@@H](C)CN([C@H](C)CO)S2(=O)=O
52	-7.1	i	N#C[C@@H]1[C@@H](c2ccc(-c3cccnc3)cc2)[C@H](CO)N1C(=O)Nc1ccc(F)cc1
53	-2.5	i	CCCC#Cc1cnc2c(c1)C(=O)N([C@H](C)CO)C[C@@H](C)[C@@H](CN(C)C(=O)Cc1ccccc1)O2
54	32.6*	i	CCCNC(=O)N1CC2(CN(CC3CCCCC3)C2)c2c(n(C)c3cc(OC)ccc23)[C@@H]1CO
55	7.9	i	C[C@@H]1CN([C@@H](C)CO)S(=O)(=O)c2ccc(/C=C/c3ccccc3)cc2O[C@H]1CN(C)C(=O)c1cccnc1
56	-0.7	i	O=C([C@@H]1N[C@@H]2c3ccc(-c4ccc(F)cc4)c(=O)n3C[C@@H]2[C@H]1CO)N1CCOCC1
57	2.9	i	C[C@@H]1CCCCO[C@H](CN(C)S(C)(=O)=O)[C@H](C)CN([C@@H](C)CO)C(=O)c2cc(NC(=O)C3CCCCC3)ccc2O1
58	-2.1	i	COCC(=O)N1[C@H](C#N)[C@H](c2ccccc2-c2cccc(C)c2)[C@H]1CO
59	5.3	i	C[C@@H]1CN([C@H](C)CO)S(=O)(=O)c2ccc(-c3cncnc3)cc2O[C@H]1CN(C)Cc1ccncc1
60	1.0	i	COc1ccc(S(=O)(=O)N(C)C[C@@H]2OCCCC[C@@H](C)Oc3ccc(NC(=O)Nc4ccc(F)cc4)cc3C(=O)N([C@@H](C)CO)C[C@@H]2C)cc1
61	-0.5	i	CCC(=O)N1C[C@H](C)[C@@H](OC)CN(C)C(=O)c2cc(NS(C)(=O)=O)ccc2OC[C@@H]1C
62	-2.1	i	C[C@H](CO)N1C[C@H](C)[C@H](CN(C)C(=O)NC2CCCCC2)Oc2c(NC(=O)c3ccncc3)cccc2C1=O
63	-1.1	i	N#C[C@H]1[C@@H](c2ccccc2-c2ccccc2)[C@@H](CO)N1c1ncc(-c2ccccc2)s1
64	4.6	i	C[C@@H]1CN([C@H](C)CO)C(=O)Cc2cc(NS(C)(=O)=O)ccc2O[C@H]1CN(C)Cc1ccc(Oc2ccccc2)cc1
65	-10.9	i	C[C@H](CO)N1C[C@H](C)[C@H](CN(C)C)Oc2ncc(-c3ccccc3F)cc2C1=O
66	-0.2	i	Cc1ccccc1S(=O)(=O)N1CCCCN2[C@@H](CO)[C@@H](c3ccc(-c4cncnc4)cc3)[C@@H]2C1
67	-2.6	i	CNC[C@H]1Oc2ccc(NC(=O)C3CC3)cc2C(=O)N([C@@H](C)CO)C[C@H]1C
68	1.3	i	C[C@H](CO)N1C[C@H](C)[C@@H](CN(C)C(=O)NC2CCCCC2)Oc2ccc(NC(=O)Nc3ccc4c(c3)OCO4)cc2CC1=O
69	1.4	i	CC=Cc1ccc2n(c1=O)C[C@H]1[C@H](CO)[C@@H](C(=O)NC3CCC3)N(S(C)(=O)=O)[C@@H]21 (mixture of isomers)
70	2.5	i	CC(C)CC#Cc1ccc2c(c1)O[C@H](CN(C)C(=O)Cc1cccnc1)[C@H](C)CN([C@@H](C)CO)S2(=O)=O
71	-0.3	i	CCC(=O)N1C[C@H]2[C@@H](c3ccccc31)[C@H](CO)N2C(=O)Nc1ccccc1F
72	-1.8	i	CO[C@@H]1CN(C)C(=O)c2ccc(NC(=O)Nc3c(C)noc3C)cc2OC[C@H](C)NC[C@H]1C
73	-0.9	i	CC(C)NC(=O)Nc1ccc2c(c1)CC(=O)N([C@@H](C)CO)C[C@@H](C)[C@H](CN(C)C(=O)Nc1cccc3ccccc13)O2
74	-2.9	i	COc1ccc2c3c(n(C)c2c1)[C@@H](CO)N(C(=O)c1ccccn1)CC31CN(C(=O)Cc2ccccc2)C1
75	0.3	i	COc1ccc2c3c([nH]c2c1)[C@H](CO)NCC31CCN(C(=O)C2CCCC2)CC1
